Vaccinia stage = blocks a specific stage of Vaccinia orthopoxvirus infection, primary screen, cell-based, single point; AID 1053133, 2014; Vaccinia-infected cells, mCherry/Venus stage reporter fluorescence; hits give low values; some inactives read as strong as hits; 89,000 tested, 0.01% active; activity change (mCherry), % (no concentration beside the values);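 active means mCherry past -33% and 40 or more points under the early reporter, replicates agreeing; inconclusive means past -33% without that gap or agreement; tested in A549 cells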;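 further: scaled between vehicle wells and reference inhibitor wells; 23 nL library stock went into each well; one replicate is shown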
Vaccinia stage Venus = second read-out of Vaccinia stage, no call of its own (marks repeat the call); activity change (Venus), %; measured here: Venus reporter, other viral stage;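 negative = less Venus signal; first of two replicates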
* = called active by the depositor; ? = inconclusive; . = no result given; & = joins results of further samples. This is a subset. The share of hits here may be higher or lower than overall.

Results follow in this order: Vaccinia stage	Vaccinia stage Venus
1) CC(=O)N(C)C[C@@H]1Oc2cc(C#Cc3ccccn3)ccc2S(=O)(=O)N([C@H](C)CO)C[C@@H]1C
    7	1
2) C[C@@H](NC(=O)C[C@@H]1C[C@H]2c3cc(NC(=O)CC4CC4)ccc3O[C@H]2[C@@H](CO)O1)c1ccccc1
    3	11
3) O=C(C[C@H]1CC[C@H]2[C@@H](COC[C@@H](O)CN2C(=O)Nc2ccc(Cl)cc2)O1)NCc1ccncn1
    -10	-4
4) CCCNC(=O)N1CC2(CCN(S(C)(=O)=O)CC2)c2c(n(C)c3cc(OC)ccc23)[C@@H]1CO
    9	4
5) O=C([C@@H]1[C@@H](CO)[C@@H]2Cn3c(ccc(-c4cccnc4)c3=O)[C@@H]2N1CC1CC1)N1CCCCC1
    -3	-1
6) CN1C(=O)c2cc(NC(=O)c3cc(F)cc(F)c3)ccc2OC[C@@H]2O[C@@H](CC(=O)O)CC[C@@H]21
    16	10
7) CC=Cc1ccc2n(c1=O)C[C@@H]1[C@@H](CO)[C@H](C(=O)NCc3ccc(F)cc3)N(C)[C@H]21 (mixture of isomers)
    -20	3
8) CNC[C@H]1Oc2ccc(NS(=O)(=O)c3c(C)noc3C)cc2CC(=O)N([C@@H](C)CO)C[C@H]1C
    16	15
9) O=C(Nc1ccc(Cl)c(Cl)c1)N[C@H]1CC[C@@H](CCn2cc(C3CCCC3)nn2)O[C@H]1CO
    -15	-18
10) O=C(C1CCCCC1)N1CC(=O)N2[C@H](CO)[C@@H](c3ccc(Br)cc3)[C@@H]2C1
    -22	-17
11) CCCN(C[C@H]1[C@@H](c2ccccc2)[C@H](CO)N1C(C)=O)C(=O)NC(C)C
    11	9
12) C[C@@H]1CCCCO[C@H](CN(C)S(=O)(=O)c2cn(C)cn2)[C@@H](C)CN([C@@H](C)CO)C(=O)c2cc(NS(=O)(=O)c3cn(C)cn3)ccc2O1
    19	5
13) CO[C@H]1CC[C@@H]2CCOc3c(C#N)cccc3C(=O)N(C)[C@H](C)C(=O)N(C)C[C@H]1O2
    13	9
14) CC(C)NC(=O)Nc1ccc2c(c1)C(=O)N([C@H](C)CO)C[C@H](C)[C@H](CN(C)Cc1ccncc1)OCCCC[C@H](C)O2
    16	-2
15) C=CCOC(=O)C1=C[C@H](c2cn(C(C)=O)c3ccccc23)C[C@H](OCc2ccc(CO)cc2)O1
    3	-1
16) O=C1O[C@@H](c2ccccc2)[C@@H](c2ccccc2)N2[C@@H](c3ccc(O)cc3)[C@]3(C(=O)Nc4ccc(C#CC5(O)CCCCCC5)cc43)[C@@H](C(=O)N3CCCCCCC3)[C@H]12
    7	6
17) COc1ccc(NC(=O)N(C)C[C@@H]2Oc3c(NS(=O)(=O)c4cccs4)cccc3C(=O)N([C@H](C)CO)C[C@H]2C)cc1
    13	19
18) CO[C@H]1CN(C)C(=O)c2ccc(NC(=O)C3CCC3)cc2OC[C@H](C)N(C(=O)NC(C)C)C[C@H]1C
    8	9
19) CN(C)C(=O)C[C@H]1C[C@@H]2c3cc(NC(=O)NC4CCCCC4)ccc3O[C@@H]2[C@H](CO)O1
    18	13
20) C[C@H]1CN([C@@H](C)CO)C(=O)c2cc(-c3ccc(C(=O)N(C)C)cc3)cnc2O[C@H]1CN(C)C(=O)c1ccncc1
    11	-1
21) Cc1noc(C)c1NC(=O)N(C)C[C@@H]1Oc2ccc(NC(=O)CCC(F)(F)F)cc2CC(=O)N([C@H](C)CO)C[C@@H]1C
    5	4
22) C[C@@H]1CN([C@H](C)CO)S(=O)(=O)c2ccc(C#Cc3cccnc3)cc2O[C@@H]1CN(C)C
    13	5
23) C[C@@H]1CN([C@@H](C)CO)C(=O)c2cc(NC(=O)C3CCCCC3)ccc2O[C@@H](C)CCCCO[C@@H]1CN(C)C(=O)C1CCCCC1
    -17	-15
24) N#C[C@@H]1[C@@H](c2ccccc2-c2ccccc2F)[C@@H](CO)N1C(=O)C1CCC1
    5	3
25) CCNC(=O)C[C@@H]1CC[C@H]2[C@@H](COC[C@@H](O)CN2Cc2ccc(Cl)c(Cl)c2)O1
    5	2
26) CCCC(=O)Nc1ccc2c(c1)C(=O)N(C)C[C@@H](OC)[C@@H](C)CN[C@@H](C)CO2
    6	1
27) COCC(=O)N1C[C@H](C)[C@H](OC)CN(C)C(=O)c2cc(NC(=O)Nc3cccc(F)c3)ccc2OC[C@H]1C
    8	2
28) C[C@@H]1CN([C@@H](C)CO)C(=O)c2cccc(NC(=O)C3CCOCC3)c2O[C@@H]1CN(C)C(=O)Nc1ccc(C(F)(F)F)cc1
    -1	4
29) CCNC(=O)C[C@H]1CC[C@@H]2[C@H](COc3ccc(NC(=O)c4ccc(F)cc4)cc3C(=O)N2C)O1
    -3	-2
30) CCCNC(=O)N1C[C@@H](O)COC[C@@H]2O[C@H](CC(=O)N[C@H]3CCN(Cc4ccccc4)C3)CC[C@H]21
    11	5
31) CO[C@@H]1CN(C)C(=O)c2ccc(NC(=O)c3ccc(-c4ccccc4)cc3)cc2OC[C@H](C)NC[C@H]1C
    ?	.
32) CC(C)C#Cc1cnc2c(c1)C(=O)N([C@H](C)CO)C[C@H](C)[C@H](CN(C)Cc1cncnc1)O2
    9	3
33) Cc1ccc(S(=O)(=O)NCC[C@H]2CC[C@H](NC(=O)Nc3ccccc3F)[C@H](CO)O2)cc1
    -14	4
34) Cc1ccccc1-c1ccc([C@H]2[C@H](CO)N3CCCCN(CC4CC4)C[C@@H]23)cc1
    -32	-28
35) C/C=C/c1ccc([C@H]2[C@@H](CO)N(Cc3ccccn3)[C@@H]2CNC(=O)CC)cc1
    6	8
36) CO[C@H]1CN(C)C(=O)c2ccc(NC(=O)c3nc4ccccc4s3)cc2OC[C@H](C)N(Cc2cccnc2)C[C@@H]1C
    -23	-8
37) CO[C@@H]1CN(C)C(=O)c2ccc(NC(C)=O)cc2OC[C@@H](C)N(C(=O)C2CCOCC2)C[C@@H]1C
    7	9
38) CC(C)NC(=O)Nc1ccc2c(c1)C(=O)N(C)[C@H]1CC[C@H](CC(=O)NCC3CCCCC3)O[C@H]1CO2
    3	-1
39) O=C(C[C@@H]1CC[C@H]2[C@@H](COC[C@H](O)CN2S(=O)(=O)c2ccc(F)cc2)O1)NCCN1CCCCC1
    3	-1
40) C[C@@H]1CN([C@@H](C)CO)C(=O)c2cc(NC(=O)CCCN(C)C)ccc2O[C@@H]1CN(C)S(=O)(=O)c1cn(C)cn1
    -3	0
41) CCC(=O)N1CCC2(CC1)CN(C(C)=O)[C@H](CO)c1[nH]c3cc(OC)ccc3c12
    15	0
42) COc1ccc(NC(=O)Nc2ccc3c(c2)C(=O)N([C@@H](C)CO)C[C@H](C)[C@H](CN(C)C(=O)Nc2ccc(OC)cc2)OCCCC[C@@H](C)O3)cc1
    -3	-5
43) C[C@H]1CN([C@@H](C)CO)C(=O)c2cccc(NS(=O)(=O)c3cn(C)cn3)c2O[C@H]1CN(C)C(=O)Nc1cccc2ccccc12
    66	34
44) CCCC#Cc1ccc2c(c1)O[C@@H](CN(C)C(=O)C1CCC1)[C@H](C)CN([C@@H](C)CO)S2(=O)=O
    ?	.
45) CO[C@@H](CN(C)C(=O)c1ccc2c(c1)OCO2)[C@@H](C)CN([C@@H](C)CO)S(=O)(=O)c1ccc(F)cc1
    -1	6
46) CCCN(C)C[C@@H]1OCc2cnnn2CCCC(=O)N([C@@H](C)CO)C[C@@H]1C
    4	-1
47) C[C@@H]1CN([C@H](C)CO)S(=O)(=O)c2ccc(C#Cc3ccc(F)cc3)cc2O[C@@H]1CN(C)CC1CC1
    ?	.
48) CN1C(=O)c2cc(NC(=O)NCc3ccccc3)ccc2OC[C@H]2O[C@@H](CC(=O)NCC3CCCCC3)CC[C@H]21
    -1	-4
49) C[C@H]1CN([C@@H](C)CO)C(=O)Cc2cc(NC(=O)CCN3CCOCC3)ccc2O[C@@H]1CN(C)Cc1ccncc1
    5	0
50) CC(=O)N(C)C[C@@H]1[C@@H](c2ccc(C#Cc3ccccn3)cc2)[C@@H](CO)N1C(C)=O
    11	13
51) Cc1ccc(-c2cnc3c(c2)C(=O)N([C@@H](C)CO)C[C@@H](C)[C@H](CN(C)CC2CCCCC2)O3)cc1
    ?	.
52) COc1cccc(-c2cn(CC[C@H]3CC[C@@H](NC(=O)CN(C)C)[C@@H](CO)O3)nn2)c1
    5	6
53) C[C@@H]1CN([C@@H](C)CO)C(=O)c2cc(C3=CCCC3)cnc2O[C@H]1CN(C)Cc1ccccc1F
    -5	-6
54) C[C@@H]1CN([C@@H](C)CO)C(=O)c2c(c3ccccc3n2C)-c2ccccc2CO[C@@H]1CN(C)Cc1ccncc1
    -27	-23
55) Cc1noc(C)c1S(=O)(=O)N(C)C[C@H]1Oc2ccc(NC(=O)CCCCCC(=O)Nc3ccccc3N)cc2CC(=O)N([C@H](C)CO)C[C@H]1C
    -4	-5
56) Cc1noc(C)c1S(=O)(=O)N(C)C[C@@H]1OCCCC[C@H](C)Oc2ccc(NC(=O)Cc3ccccc3)cc2C(=O)N([C@@H](C)CO)C[C@H]1C
    -27	-20
57) Cc1noc(C)c1S(=O)(=O)Nc1ccc2c(c1)C(=O)N([C@@H](C)CO)C[C@@H](C)[C@@H](CN(C)C(=O)CCC(F)(F)F)OCCCC[C@@H](C)O2
    29	24
58) O=C(C[C@H]1CC[C@@H](NS(=O)(=O)c2ccccc2)[C@@H](CO)O1)NCCN1CCCCC1
    1	-5
59) O=C(NC[C@@H]1CC[C@H]2[C@H](CN2Cc2ccccc2C(=O)O)O1)c1ccc(F)cc1
    4	8
60) COc1ccc2c3c([nH]c2c1)[C@@H](CO)N(Cc1nccs1)CC31CCN(C(=O)C2CCC2)CC1
    8	12

4 of these compounds, reformatted:
| No. | mol | Vaccinia stage | Vaccinia stage Venus |
| --- | --- | --- | --- |
| 56 | Cc1noc(C)c1S(=O)(=O)N(C)C[C@@H]1OCCCC[C@H](C)Oc2ccc(NC(=O)Cc3ccccc3)cc2C(=O)N([C@@H](C)CO)C[C@H]1C | -27 | -20 |
| 57 | Cc1noc(C)c1S(=O)(=O)Nc1ccc2c(c1)C(=O)N([C@@H](C)CO)C[C@@H](C)[C@@H](CN(C)C(=O)CCC(F)(F)F)OCCCC[C@@H](C)O2 | 29 | 24 |
| 58 | O=C(C[C@H]1CC[C@@H](NS(=O)(=O)c2ccccc2)[C@@H](CO)O1)NCCN1CCCCC1 | 1 | -5 |
| 59 | O=C(NC[C@@H]1CC[C@H]2[C@H](CN2Cc2ccccc2C(=O)O)O1)c1ccc(F)cc1 | 4 | 8 |

(list continues)
Results follow in this order: Vaccinia stage	Vaccinia stage Venus
61) C[C@@H]1CN([C@H](C)CO)S(=O)(=O)c2ccc(-c3cncnc3)cc2O[C@@H]1CN(C)Cc1cncnc1
    18	12
62) C[C@@H]1CCCCO[C@@H](CN(C)S(=O)(=O)c2ccc(Cl)cc2)[C@H](C)CN([C@@H](C)CO)C(=O)c2cc(NC(=O)NC3CCCCC3)ccc2O1
    2	4
63) CO[C@@H]1CN(C)C(=O)c2cc(NS(=O)(=O)c3cn(C)cn3)ccc2OC[C@@H](C)NC[C@@H]1C
    6	-1
64) C[C@H]1CN([C@@H](C)CO)C(=O)c2cc(C3=CCCC3)cnc2O[C@H]1CN(C)C(=O)C1CCCCC1
    4	7
65) C/C=C/c1ccc2c(c1)O[C@@H](CN(C)Cc1ccccc1F)[C@@H](C)CN([C@H](C)CO)S2(=O)=O
    ?	.
66) C[C@H](CO)N1C[C@H](C)[C@@H](CN(C)S(=O)(=O)c2ccc(F)cc2)Oc2ccc(NS(=O)(=O)c3cn(C)cn3)cc2C1=O
    8	6
67) CCCC(=O)Nc1ccc2c(c1)C(=O)N(C)C[C@H](OC)[C@@H](C)CN(C(=O)c1ccncc1)[C@H](C)CO2
    10	8
68) COc1ccccc1C#Cc1ccc2c(c1)[C@@H]1[C@@H](CCN1C(=O)c1cccc(F)c1)[C@H](CO)N2
    -16	-7
69) C[C@@H]1CN([C@@H](C)CO)C(=O)c2cc(NS(=O)(=O)c3ccc(Cl)cc3)ccc2O[C@@H](C)CCCCO[C@@H]1CN(C)Cc1ccncc1
    ?	.
70) C[C@H](CO)N1C[C@H](C)[C@H](CN(C)Cc2cncnc2)Oc2ncc(/C=C/c3ccccc3)cc2C1=O
    -7	1
71) COc1ccc2c3c([nH]c2c1)[C@@H](CO)N(C(=O)Nc1ccc(F)cc1)CC31CCN(S(=O)(=O)c2ccc(C)cc2)CC1
    -7	-2
72) C[C@H](CO)N1C[C@H](C)[C@@H](CN(C)C(=O)c2cccc(F)c2)Oc2cc(-c3cncnc3)ccc2S1(=O)=O
    8&7	6&8
73) Cc1noc(C)c1NC(=O)Nc1ccc2c(c1)C(=O)N(C)[C@H]1CC[C@H](CC(=O)N[C@H]3CCN(Cc4ccccc4)C3)O[C@@H]1CO2
    2	8
74) O=C(C[C@@H]1C=C[C@H](NC(=O)Nc2cc(F)ccc2F)[C@@H](CO)O1)Nc1ccccc1
    -3	6
75) Cc1ccc(S(=O)(=O)Nc2ccc3c(c2)C(=O)N([C@H](C)CO)C[C@@H](C)[C@@H](CN(C)CC2CCCCC2)OCCCC[C@H](C)O3)cc1
    ?	.

In the list so far, these contain a CF3 group.
Results follow in this order: Vaccinia stage	Vaccinia stage Venus
21) Cc1noc(C)c1NC(=O)N(C)C[C@@H]1Oc2ccc(NC(=O)CCC(F)(F)F)cc2CC(=O)N([C@H](C)CO)C[C@@H]1C
    5	4
28) C[C@@H]1CN([C@@H](C)CO)C(=O)c2cccc(NC(=O)C3CCOCC3)c2O[C@@H]1CN(C)C(=O)Nc1ccc(C(F)(F)F)cc1
    -1	4
57) Cc1noc(C)c1S(=O)(=O)Nc1ccc2c(c1)C(=O)N([C@@H](C)CO)C[C@@H](C)[C@@H](CN(C)C(=O)CCC(F)(F)F)OCCCC[C@@H](C)O2
    29	24
